From PubChem BioAssay
KCNQ2 enhance: potentiators of rat KCNQ2 potassium channel; CHO-K1 KCNQ2, FluxOR thallium flux fluorescence; active compounds read high; hit rate 0.54% among 310,000; B-score at 10 µM; Potassium voltage-gated channel subfamily KQT member 2 (Rattus norvegicus), O88943;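 active = fluorescence ratio B-score at least 3 SD of library B-scores, with initial fluorescence B-score within 3 SD, cut at about 5.3 in these data; same plate scores as AID 2156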;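 also: B-score of peak minus minimum over baseline fluorescence ratio after K+ and Tl+ stimulus; positive B-score means potentiation of KCNQ2 with more thallium influx and brighter signal; only the inactives scoring about 0 or higher are listed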
Target sequence (O88943 whole entry, looked up): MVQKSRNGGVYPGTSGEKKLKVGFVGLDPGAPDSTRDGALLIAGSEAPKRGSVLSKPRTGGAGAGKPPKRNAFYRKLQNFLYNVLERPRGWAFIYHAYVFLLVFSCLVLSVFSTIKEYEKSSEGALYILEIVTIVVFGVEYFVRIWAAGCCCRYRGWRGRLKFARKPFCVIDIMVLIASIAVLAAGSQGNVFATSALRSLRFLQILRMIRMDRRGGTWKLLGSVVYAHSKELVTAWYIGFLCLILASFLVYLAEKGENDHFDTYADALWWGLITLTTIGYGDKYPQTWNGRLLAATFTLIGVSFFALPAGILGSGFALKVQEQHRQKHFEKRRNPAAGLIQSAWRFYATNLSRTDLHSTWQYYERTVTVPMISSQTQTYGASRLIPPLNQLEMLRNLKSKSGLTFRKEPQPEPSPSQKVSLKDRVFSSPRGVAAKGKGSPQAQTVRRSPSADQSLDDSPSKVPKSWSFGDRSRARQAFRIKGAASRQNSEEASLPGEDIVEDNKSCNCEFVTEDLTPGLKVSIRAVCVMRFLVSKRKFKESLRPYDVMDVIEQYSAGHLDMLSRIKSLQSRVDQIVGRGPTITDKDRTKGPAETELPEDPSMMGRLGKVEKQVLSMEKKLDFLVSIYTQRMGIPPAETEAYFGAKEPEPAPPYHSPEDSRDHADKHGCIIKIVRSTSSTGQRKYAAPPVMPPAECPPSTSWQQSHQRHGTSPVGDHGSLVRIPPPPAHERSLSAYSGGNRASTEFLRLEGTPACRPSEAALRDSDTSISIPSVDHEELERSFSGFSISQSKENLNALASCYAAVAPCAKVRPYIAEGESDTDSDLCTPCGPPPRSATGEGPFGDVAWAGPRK
KCNQ2 enhance baseline: recorded beside KCNQ2 enhance, whose call it bears; B-score; compound at 10 µM; measured here: initial fluorescence intensity artifact check;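 brightness before thallium and not channel activity; 0 = typical well and far values either way flag optical interference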
* = called active by the depositor; & = joins results of further samples.

Value order – KCNQ2 enhance	KCNQ2 enhance baseline
> CCN(CC)CCCNC(=O)c1c(O)c2ccccc2n(Cc2ccccc2)c1=O
 : 2	-0.72
> O=C(CNC(=O)c1ccccc1Cl)Nc1ccc(Br)cc1C(=O)c1ccccc1
 : 0.06	-1.2
> CC(Cc1ccccc1)NC=O (centres undefined)
 : 0.02	-1.1
> CC(=O)N1CN2CN(C(C)=O)CC(C(=O)c3ccc(Br)cc3)(C2)C1
 : 0.84	0.58
> OC(CC#CCN1CCCCCC1)(c1ccccc1)C1CCCC1 (centres undefined)
 : 0.11	1.3
> COc1cc(/C=N/NC(=O)Cn2c([N+](=O)[O-])cnc2C)ccc1OC(=O)N(C)C
 : 0.91	0.03
> C[C@]12CCC3=C4CCC(=O)C=C4CC[C@H]3C1CC[C@@H]2O (some centres undefined)
 : 1.1	0.38
> Fc1ccc2c(c1)nnn2C1CCN(Cc2c(Cl)cccc2Cl)CC1
 : 0.04	-2
> OC(CNC1CCCCC1)C(F)(F)F (centres undefined)
 : 0.12	1.5
> CCOC(=O)C1=C(N)Oc2cc(C)oc(=O)c2C12C(=O)N1c3c(cccc32)C(C)=CC1(C)C (centres undefined)
 : 0.84	0.06
> CCOC(=O)c1c(C)n(CCN2CCN(C)CC2)c2ccc(OC)cc12
 : 0.43	-0.03
> COc1cc(CC(C)N)c(OC)cc1I (centres undefined)
 : 0.68	0.61
> Cc1nc2ccccc2c(=O)n1-c1ccc(F)cc1
 : 1.3	0.21
> Fc1ccccc1CCNCc1ccccc1
 : 0.24	-1.1
> S=C1CN=C(c2ccccc2)c2cc(Cl)ccc2N1
 : 0.2	0.3
> COc1ccc(CC(C)NCCc2ccc(OC)c(OC)c2)cc1 (centres undefined)
 : 4	-2.7
> NC(=O)c1ccc(N=Cc2c(O)n(Cc3ccco3)c(=O)[nH]c2=O)cc1
 : 1.7	0.53
> OC(CNCCc1c[nH]c2ccccc12)c1ccccc1 (centres undefined)
 : 0.48	-0.06
> O=Cc1cn(Cc2ccc([N+](=O)[O-])cc2)c2ccccc12
 : 0.01	3.9
> CN1CCN(c2cc([N+](=O)[O-])ccc2Cl)CC1
 : 1.6	-0.62
> CN1CCc2c(C#N)c(Cl)nc(Cl)c2C1
 : 0.28	0.05
> CCCC1=C(C(=O)OCC)C2(C(=O)Nc3ccccc32)C(C#N)=C(N)O1 (centres undefined)
 : 1.8	1.7
> CN1C(=O)C(=CN2CCN(C(=O)c3ccco3)CC2)C(=O)N(C)C1=S
 : 1.4	0.95
> CCC(=Nc1ccc2c(c1)CCC2)c1c(O)n(-c2ccc(OC)cc2)c(=O)[nH]c1=O
 : 0.06	-0.13
> O=C(c1cc(S(=O)(=O)N2CCC3(CC2)OCCO3)ccc1F)N1CCC2(CC1)OCCO2
 : 0.45	-0.7
> CCC(CC)NC1CCCCC1OC (centres undefined)
 : 0.58	0.96
> COc1ccc(-c2nn(CCC#N)cc2C(=O)Nc2cccc([N+](=O)[O-])c2)cc1OC
 : 0.33	-1.1
> CCOC(=O)C1=C(C)OC(N)=C(C(=O)OCC)[C@@]12C(=O)N(CC(N)=O)c1ccccc12
 : 0.38	-0.41
> COc1ccc(Cn2c(O)c(C=Nc3c(C)n(C)n(-c4ccccc4)c3=O)c(=O)[nH]c2=O)cc1
 : 0.22	1.2
> O=C(/C=C/c1ccccc1)c1c(O)n(CCc2ccccc2)c(=O)[nH]c1=O
 : 0.33	1.8

Next part; it opens with the 5 that closed the last part.
Value order – KCNQ2 enhance	KCNQ2 enhance baseline
> CCC(CC)NC1CCCCC1OC (centres undefined)
 : 0.58	0.96
> COc1ccc(-c2nn(CCC#N)cc2C(=O)Nc2cccc([N+](=O)[O-])c2)cc1OC
 : 0.33	-1.1
> CCOC(=O)C1=C(C)OC(N)=C(C(=O)OCC)[C@@]12C(=O)N(CC(N)=O)c1ccccc12
 : 0.38	-0.41
> COc1ccc(Cn2c(O)c(C=Nc3c(C)n(C)n(-c4ccccc4)c3=O)c(=O)[nH]c2=O)cc1
 : 0.22	1.2
> O=C(/C=C/c1ccccc1)c1c(O)n(CCc2ccccc2)c(=O)[nH]c1=O
 : 0.33	1.8
> O=c1[nH]c(O)c(C=Nc2ccccc2Oc2ccccc2)c(=O)[nH]1
 : 1.6	-1.8
> O=C1NC(=O)N(Cc2ccccc2)C(=O)/C1=C\C=C\c1ccco1
 : 0.62	-1.2
> O=C1NC(=O)N(c2ccc3c(c2)OCO3)C(=O)/C1=C\c1ccc(-c2ccccc2C(=O)O)o1
 : 1.7	-0.78
> OC1/C(=C/c2ccccc2F)N2CCC1CC2 (centres undefined)
 : 0.91	-1
> Oc1cccc2nc3ccccc3nc12
 : 12*	-1.9*
> CCOc1ccc(CN(CCCl)CCCl)cc1C(=O)OC
 : 1.1	-2.1
> CCOC(=O)COc1ccc(/C=C2\C(=O)NC(=S)N(c3ccc(OC)cc3)C2=O)cc1OC
 : 1.8	-1.1
> N#CC1=C(N)Oc2c(c(=O)sc3ccccc23)C1c1ccncc1 (centres undefined)
 : 1.1	-2.3
> CC(C)c1ccc(N2C(=O)NC(=O)/C(=C/c3cnc(-c4ccccc4)nc3)C2=O)cc1
 : 0.3	-0.19
> COc1ccc(C2(C#N)CC[N+](C)(C)CC2)cc1
 : 0.91	0.07
> O=c1[nH]c(=O)n(CCc2ccc(F)cc2)c(O)c1/C=N/N1CCCCC1
 : 1.6	0.72
> COC(=O)[C@@H]1C[C@H]1[C@@H](NP(=O)(c1ccccc1)c1ccccc1)c1ccccc1
 : 1	0.03
> Cc1cccc(-n2c(O)c(C=NCc3cccnc3)c(=O)[nH]c2=O)c1C
 : 1.2	-1.5
> CCC(Oc1cc(Cl)ccc1Cl)C(=O)N1CCC2(CC1)OCCO2 (centres undefined)
 : 0.62	-0.17
> C=CCN1C(=O)CSc2ccc(C(=O)N3CCC4(CC3)OCCO4)cc21
 : 0.8	-0.77
> Cc1ccc[n+](CC(O)Cn2c3ccccc3c3ccccc32)c1 (centres undefined)
 : 0.66	3.4
> CCN(CC)C(=O)c1ccc(NC(=O)c2cccc(S(=O)(=O)N3CCN(C)CC3)c2)cc1
 : 1.5	1.8
> CCOC(=O)c1c(/N=C/c2c(O)n(-c3ccc(F)cc3)c(=S)[nH]c2=O)sc2c1CCCC2
 : 0.26	-0.36
> O=c1[nH]c(=O)n(Cc2ccc(F)cc2)c(O)c1C=Nc1ccc(Cl)cc1
 : 1.3	-1.4
> COc1ccccc1OC(=O)c1ccc(C)c(S(=O)(=O)N2CCOCC2)c1
 : 0.03	0
> O=C(c1ccccc1F)c1cn(CC(=O)N2CCOCC2)c2ccccc12
 : 1.2	-1.8
> Cc1cc(OCC(=O)O)c2c3c(c(=O)oc2c1)CCCC3
 : 0.67	-1
> CC1CCN(c2cc(Br)c([N+](=O)[O-])cc2F)CC1
 : 0.61	0.44
> CC(=O)Nc1ccccc1C(=O)OCC(=O)c1ccc2ccccc2c1
 : 0.71	-0.54
> COc1ccc(CCN(C)Cc2ccc(F)cc2F)cc1OC
 : 0.93	0.78
> CC(=Nc1ccc(F)cc1)c1c(O)n(C)c(=O)[nH]c1=O
 : 0.92	1.7
> CN1C(=O)C(Cc2ccc(OCc3ccccc3)cc2)C(=O)N(C)C1=O
 : 0.21	-0.44
> CN(C)C(=O)Oc1ccc(-c2nnco2)cc1
 : 0.19	1.1
> CCN1CCN(Cc2ccc(C)cc2)CC1
 : 1.3	-0.87
> CP(=O)(O)CCCN
 : 2.3	1.7
> CCC(C)NC(=O)c1c(N)n(CCCOC)c2nc3ccccc3nc12 (centres undefined)
 : 0.32	-0.31
> CN(C)c1cccc2c(C#N)ccc(N(C)C)c12
 : 0.1	0
> Cc1ccc2[nH]c(C)c(CCNCc3ccco3)c2c1
 : 0.72	1.6
> CCCCn1c(O)c(C(C)=Nc2ccc(C(=O)O)cc2)c(=O)[nH]c1=O
 : 5.6*	-1*
> CC(=O)c1ccc(OC(C)C)c(Cc2c(O)[nH]c(=S)[nH]c2=O)c1
 : 0.37	0.34
> O=C(C1CCC(=O)N1Cc1ccccc1Cl)N1CCC2(CC1)OCCO2 (centres undefined)
 : 1.5	0.97
> O=C(NC1CCCCC1)Oc1cc2oc(=O)sc2cc1Cl
 : 0.27	-0.02
> COc1ccccc1OCC#CCN1CCCC(C)C1 (centres undefined)
 : 0.68	-0.47
> O=Cc1cn(CCCOc2ccccc2)c2ccccc12
 : 0.07	0.47
> O=c1c2ccccc2[nH]c(=S)n1-c1ccc2c(c1)OCO2
 : 1.1	0.36
> COC(=O)OCC12CCC(O1)C1(C)C(=O)OCC21 (centres undefined)
 : 1.6	0.2
> CCC(C(=O)N1CCC2(CC1)OCCO2)c1ccccc1 (centres undefined)
 : 0.43	-1.1
> O=C(CSC1c2ccccc2-c2ccccc21)N/N=C/c1ccccc1
 : 0.03	0.53
> [N-]=[N+]=CC(=O)OC[C@H](N)C(=O)O
 : 0.74	-1.1
> CC(=O)C1=C(C)OC(N)=C(C(=O)OC(C)C)C12C(=O)Nc1ccccc12 (centres undefined)
 : 0.64	0.14
> CCOc1ccc(N=Cc2c(O)n(C(C)(C)C)c(=O)[nH]c2=O)cc1
 : 0.75	-0.27
> CNC(=S)N(C)CCc1cc2c(c(OC)c1C=C1C(=O)NC(=O)NC1=O)OCO2
 : 1.6	-1.3
> Nc1ccccc1C(=O)OC1CSC1
 : 1.4	-1.8
> N#CCCn1cc(C(=O)Nc2ccccc2Cl)c(-c2ccc([N+](=O)[O-])cc2)n1
 : 0.02	-1.2
> COc1ccc(OC)c(-n2c(O)c(/C=C3\C(C)=Nc4ccccc43)c(=O)[nH]c2=O)c1
 : 2.1	-1.1
> Cc1nc2ncnn2c(C)c1CCC(=O)N1CCC2(CC1)OCCO2
 : 0.77	0.66
> COc1ccc(C(=O)N2CCC3(CC2)OCCO3)cc1
 : 0.18	-0.16
> CCOP(=O)(Cc1cc(C(C)=O)c(C)o1)OCC
 : 1.1	-0.88
> Cn1nc(-c2ccc(OCC(=O)N3CCN(Cc4ccccc4)CC3)cc2)c2ccccc2c1=O
 : 0.46&0.87	1.6&-0.53
> CCN1CCN(c2ccc([N+](=O)[O-])cc2C=C2C(=O)NC(=O)NC2=O)CC1
 : 0.06	-0.19
> COc1ccc2[nH]c(C)c(CCN3CCC(=O)C(C)C3C)c2c1 (centres undefined)
 : 1	0.78
> O=C(c1n[nH]c(=O)c2ccccc12)N1CCC2(CC1)OCCO2
 : 0.93	-0.72
> COC(=O)c1ccccc1N=Cc1c(O)[nH]c(=O)[nH]c1=O
 : 0.14	1.9
> O=C1N(CN2CCOCC2)c2ccccc2C1(O)c1c[nH]c2ccccc12 (centres undefined)
 : 0.26	1.1
> Cc1ccc2c(c1)C1CN(C)CCC1N2C(=O)Cn1nnc(-c2ccccc2F)n1 (centres undefined)
 : 1.9	-0.38

(list continues)
Value order – KCNQ2 enhance	KCNQ2 enhance baseline
> CC1CCN(CC(=O)c2ccccc2Cl)CC1
 : 0.8	-0.67
> COc1ccccc1CN1CCN(C(=O)COc2ccccc2)CC1
 : 0.23	-0.77
> CCOC(=O)C1=C(N)OC2=C(C(=O)CCC2)C12C(=O)N(CC(N)=O)c1ccccc12 (centres undefined)
 : 0.31	-1.5
> c1ccc(C(OCCN2CCN(c3ncccn3)CC2)c2ccccc2)cc1
 : 0.29	0.19
> CN1C(=O)/C(=C/c2ccc(N3CCCCCC3)o2)C(=O)NC1=S
 : 0.39	0.87
> CCN(CC)C(=O)c1ccc(NC(=O)Nc2ccccc2F)cc1
 : 1.7	-0.05
> CC(C)(C)C(=O)NC1CCSC1=O (centres undefined)
 : 1	-0.47
> O=[N+]([O-])/C(Cl)=C1\NCCN1Cc1ccc(Cl)nc1
 : 0.85	-0.3
> OC1/C(=C/c2ccccc2C(F)(F)F)N2CCC1CC2 (centres undefined)
 : 0.19	-0.28
> O=c1[nH]c(=O)n(Cc2ccco2)c(O)c1C=NCc1ccco1
 : 1.6	-1.5
> Cc1nn(CC(C)C)c(Cl)c1C(=O)O
 : 0.04	1.6
> O=C(C1CCCO1)N1CCC2(CC1)OCCO2 (centres undefined)
 : 0.03	0.09
> CC/C(=N\Nc1ccccc1)c1c(O)[nH]c(=O)[nH]c1=O
 : 0.02	1.1
> CC(C)CN1CCN(Cc2cccc3c2OCO3)CC1CCO (centres undefined)
 : 0.02	0.59
> COc1cc(C)c(CN2CCN(c3ccccc3)CC2)cc1C
 : 0.87	-0.18
> CCC(C)n1c(O)c(/C=N/Nc2nc3c(c(=O)n(C)c(=O)n3C)n2C)c(=O)[nH]c1=S (centres undefined)
 : 0.3	0.35
> CCOC(=O)C1C(=O)N(C)C2(C)CC1c1cc(OC)ccc1O2 (centres undefined)
 : 1.6	-0.43
> O=C(CN1CCN(c2ccccc2F)CC1)Nc1cccnc1Cl
 : 0.35	-2.4
> Cc1c(C(=O)C(=O)N2CCC3(CC2)OCCO3)c2ccccc2n1C
 : 0.82	0.69
> COc1cc(C=C2C(=O)NC(=O)NC2=O)cc(OC)c1OC
 : 0.39	-0.35
> OC(Cn1c2ccccc2c2ccccc21)C[n+]1ccccc1 (centres undefined)
 : 0.4	0.3
> O=C1NC(=O)N(c2ccccc2)C(=O)/C1=C\C=C\c1ccccc1
 : 0.33	2
> CCN(CC)C(=O)c1ccc(NC(=O)C2=C(C)OCCS2)cc1
 : 0.98	-0.04

Six compounds from above, arranged by formula weight, falling.
Value order – KCNQ2 enhance	KCNQ2 enhance baseline
> Cc1c(C(=O)C(=O)N2CCC3(CC2)OCCO3)c2ccccc2n1C
 : 0.82	0.69
> CCN(CC)C(=O)c1ccc(NC(=O)C2=C(C)OCCS2)cc1
 : 0.98	-0.04
> CCOC(=O)C1C(=O)N(C)C2(C)CC1c1cc(OC)ccc1O2 (centres undefined)
 : 1.6	-0.43
> O=C1NC(=O)N(c2ccccc2)C(=O)/C1=C\C=C\c1ccccc1
 : 0.33	2
> COc1cc(C=C2C(=O)NC(=O)NC2=O)cc(OC)c1OC
 : 0.39	-0.35
> OC(Cn1c2ccccc2c2ccccc21)C[n+]1ccccc1 (centres undefined)
 : 0.4	0.3

A portion of the library; count on the stated rates, not on these rows.
